# rRNA inh HTS: inhibitors of bacterial rRNA selective over humanized ribosomes. E. coli WT GFP vs humanized-ribosome RFP mutants, fluorescence, 24 h; hits give low values; DMSO median 0, no signal -100. GFP signal change (wild-type ribosome), % (test concentration not listed). hit rate 1.6% among 350,000;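 active = significant combined selectivity score with lowered wild-type GFP, culture density cut under 30%, mutant RFP and density less affected; inactive = any of these conditions unmet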; note: one replicate is shown; some compounds called inactive have numbers as strong as hits
# rRNA inh HTS OD600: further read-out of rRNA inh HTS, marked with its call; OD600 change, %; measured here: OD600 growth;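 optical density of the mix in the first replicate; 0 = DMSO median and -100 = no signal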
# rRNA inh HTS RFP: second read-out of rRNA inh HTS, no call of its own (marks repeat the call); RFP signal change, %; measured here: RFP humanized mutant strains;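 first replicate; 0 = DMSO median and -100 = no signal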
# Active calls of the source: *; & = joins results of further samples. Not all compounds are listed, so the mix of outcomes need not match the whole.
SMILES,rRNA inh HTS,rRNA inh HTS OD600,rRNA inh HTS RFP
C[C@H](CO)N1C[C@H](C)[C@H](CN(C)Cc2cccc(C(F)(F)F)c2)Oc2ncc(-c3cccc(F)c3)cc2C1=O,-17,-53,26
C[C@@H]1CN([C@@H](C)CO)C(=O)c2cccc(NS(=O)(=O)c3ccc(Cl)cc3)c2O[C@@H]1CN(C)C(=O)Nc1ccc(C(F)(F)F)cc1,-2,-11,4.2
O=C(C1CCC1)N1CC[C@H]2[C@H](CO)Nc3ccc(C4=CCCCC4)cc3[C@H]21,4,11,-0.4
CCS(=O)(=O)Nc1ccc2c(c1)C(=O)N(C)[C@@H]1CC[C@@H](CC(=O)N[C@H]3CCN(Cc4ccccc4)C3)O[C@@H]1CO2,1,0,0.7
Cc1ccc(S(=O)(=O)N(C)C[C@H]2OCCCC[C@H](C)Oc3ccc(NC(=O)c4ccncc4)cc3C(=O)N([C@H](C)CO)C[C@@H]2C)cc1,-2,-6,5.8
C/C=C/c1ccc([C@H]2[C@@H](CO)N(CC3CCCC3)[C@H]2CNC(C)=O)cc1,2,0,-0.6
O=C(Cc1ccccc1)N1CC(=O)N2[C@H](CO)[C@@H](c3ccc(C#CCc4ccccc4)cc3)[C@@H]2C1,1,8,0.2
COc1ccc2c3c([nH]c2c1)[C@@H](CO)N(C(C)=O)CC31CN(C(=O)Nc2ccccc2F)C1,1,13,-0.3
C[C@@H]1CN([C@H](C)CO)C(=O)c2cccc(NC(=O)Nc3ccc(F)cc3)c2O[C@@H]1CN(C)Cc1ccc(C(=O)Nc2ccccc2N)cc1,-3,-4,-1.6
C[C@@H]1CN([C@H](C)CO)C(=O)c2cc(N(C)C)ccc2O[C@@H](C)CCCCO[C@H]1CN(C)S(=O)(=O)c1ccc(Cl)cc1,-2,2,0.8
COc1ccc(NC(=O)N(C)C[C@H]2OCc3cn(nn3)CCCC(=O)N([C@H](C)CO)C[C@H]2C)c(OC)c1,1,0,-0.7
Cc1cccc(S(=O)(=O)N2C[C@@H]3N[C@H](C2)C3c2ccc(-c3ccccc3F)cc2)c1 (stereo partly drawn),-60&2,-74&13,-16&3.8

# 3 compounds already listed, ordered by heavy-atom count, largest number first:
SMILES,rRNA inh HTS,rRNA inh HTS OD600,rRNA inh HTS RFP
CCS(=O)(=O)Nc1ccc2c(c1)C(=O)N(C)[C@@H]1CC[C@@H](CC(=O)N[C@H]3CCN(Cc4ccccc4)C3)O[C@@H]1CO2,1,0,0.7
COc1ccc2c3c([nH]c2c1)[C@@H](CO)N(C(C)=O)CC31CN(C(=O)Nc2ccccc2F)C1,1,13,-0.3
Cc1cccc(S(=O)(=O)N2C[C@@H]3N[C@H](C2)C3c2ccc(-c3ccccc3F)cc2)c1 (stereo partly drawn),-60&2,-74&13,-16&3.8

# The list goes on.
SMILES,rRNA inh HTS,rRNA inh HTS OD600,rRNA inh HTS RFP
O=C(C1CCOCC1)N1CC(=O)N2[C@H](CO)[C@@H](c3ccc(C#CCc4ccccc4)cc3)[C@@H]2C1,-4,2,1.3
C[C@H]1CN([C@@H](C)CO)C(=O)c2cccc(NC(=O)Nc3ccccc3)c2O[C@H]1CN(C)C(=O)Nc1ccccc1,-5,-14,4.0
CN1C(=O)c2cc(NC(=O)c3ccc(C(F)(F)F)cc3)ccc2OC[C@H]2O[C@H](CC(=O)NCc3ccc4c(c3)OCO4)CC[C@@H]21,-1,-23,-1.7
C[C@@H]1CN([C@H](C)CO)C(=O)c2cc(NS(C)(=O)=O)ccc2O[C@@H](C)CCCCO[C@H]1CN(C)Cc1ccc2c(c1)OCO2,1,6,0.6
O=C(C1CC1)N1CC2(C1)[C@@H](c1ccccc1)[C@@H](CO)N2CC1CCCC1,-6,0,4.4
COc1ccccc1NC(=O)N[C@@H]1CC[C@H](CCNS(=O)(=O)c2ccc(C)cc2)O[C@@H]1CO,2,-1,0.2
CO[C@H]1CN(C)C(=O)c2cc(NS(C)(=O)=O)ccc2OC[C@H](C)N(C(=O)CC2CC2)C[C@H]1C,0,4,-1.3
CO[C@@H]1CN(C)C(=O)c2ccc(NC(=O)c3ccccc3)cc2OC[C@@H](C)N(C)C[C@H]1C,-1,1,0.9
N#C[C@@H]1[C@@H](c2ccccc2-c2cccc(F)c2)[C@H](CO)N1C(=O)NC1CCCCC1,-8,-22,-2.5
CC(C)C#Cc1ccc([C@@H]2[C@@H](CO)N3C(=O)CN(C(=O)NC4CCCCC4)C[C@@H]23)cc1,4,-13,2.0
COc1ccc(NC(=O)N2CC(=O)N3[C@H](C2)[C@H](c2ccc(Br)cc2)[C@@H]3CO)cc1,3,0,0.3
C[C@@H]1CN([C@@H](C)CO)C(=O)c2cc(NC(=O)Nc3ccccc3)ccc2O[C@@H](C)CCCCO[C@H]1CN(C)S(=O)(=O)c1ccccc1,0,8,-2.5

# Profiles as entered above:
# Results for COc1ccc(NC(=O)N2CC(=O)N3[C@H](C2)[C@H](c2ccc(Br)cc2)[C@@H]3CO)cc1 → rRNA inh HTS = 3; rRNA inh HTS OD600 = 0; rRNA inh HTS RFP = 0.3
# Results for CCS(=O)(=O)Nc1ccc2c(c1)C(=O)N(C)[C@@H]1CC[C@@H](CC(=O)N[C@H]3CCN(Cc4ccccc4)C3)O[C@@H]1CO2 → rRNA inh HTS = 1; rRNA inh HTS OD600 = 0; rRNA inh HTS RFP = 0.7
# Results for C/C=C/c1ccc([C@H]2[C@@H](CO)N(CC3CCCC3)[C@H]2CNC(C)=O)cc1 → rRNA inh HTS = 2; rRNA inh HTS OD600 = 0; rRNA inh HTS RFP = -0.6

# Next section.
SMILES,rRNA inh HTS,rRNA inh HTS OD600,rRNA inh HTS RFP
COc1ccc2c3c([nH]c2c1)[C@@H](CO)N(C(=O)Cc1ccccc1)CC31CN(C)C1,4,10,0.5
C[C@H]1CN([C@@H](C)CO)C(=O)c2cc(NS(=O)(=O)c3cn(C)cn3)ccc2O[C@H]1CN(C)S(=O)(=O)c1cn(C)cn1,1,8,-2.5
CC(C)NC(=O)N1C[C@@H]2[C@H](c3ccccc31)[C@H](CO)N2Cc1ccccc1,0,-3,-1.8
O=C(C[C@H]1CC[C@H]2NC[C@H](O)COC[C@@H]2O1)NCCN1CCCC1,1,7,-2.2
COc1ccc(NC(=O)N(C)C[C@H]2Oc3c(NS(=O)(=O)c4ccccc4)cccc3C(=O)N([C@H](C)CO)C[C@H]2C)cc1,-2,-6,-1.3
O=C(O)C[C@@H]1C=C[C@H](NC(=O)c2ccccc2F)[C@@H](CO)O1,4,2,-2.3
C[C@@H]1CN([C@H](C)CO)C(=O)Cc2cc(NC(=O)CCC(F)(F)F)ccc2O[C@@H]1CN(C)S(C)(=O)=O,5,6,-0.1
COCC(=O)N1CC2(C1)[C@@H](c1ccccc1)[C@H](CO)N2C(=O)c1ccncc1,2,0,-0.8
CC(C)NC(=O)N(C)C[C@H]1Oc2c(N)cccc2C(=O)N(C)C[C@H]1C,3,2,0.0
CN(C)C(=O)c1cccc(-c2ccc(C3[C@@H]4CN(S(=O)(=O)c5ccc(F)cc5)C[C@H]3N4)cc2)c1 (stereo partly drawn),1&-4,-1&2,-3.4&0.3
C[C@H]1CN([C@@H](C)CO)C(=O)Cc2cc(NC(=O)Cn3cnnn3)ccc2O[C@@H]1CN(C)CC1CCCCC1,0,-5,2.6
COc1ccc(-c2ccc3n(c2=O)C[C@H]2[C@H](CO)[C@@H](C(=O)N(C)C)[C@@H]3N2C(=O)c2cnccn2)cc1,0,1,-2.6
C[C@@H]1CN([C@H](C)CO)C(=O)Cc2cc(NC(=O)CCN3CCOCC3)ccc2O[C@@H]1CN(C)CC1CC1,0,8,-1.1
OC[C@@H]1[C@@H](c2ccc(C#CC3(O)CCCC3)cc2)[C@H]2CN(Cc3cncnc3)CCCCN12,4,12,-0.3
C[C@@H]1CCCCO[C@@H](CN(C)C(=O)Nc2ccccc2)[C@@H](C)CN([C@H](C)CO)C(=O)c2cc(NC(=O)c3ccncc3)ccc2O1,10,11,-0.6
C[C@@H]1CN([C@H](C)CO)C(=O)c2cc(NC(=O)C3CCCCC3)ccc2O[C@@H](C)CCCCO[C@H]1CN(C)S(=O)(=O)c1ccccc1,1,0,0.0
O=C(C1CCCCC1)N1CC(=O)N2[C@H](C1)[C@H](c1ccc(Br)cc1)[C@@H]2CO,3,6,-2.3
C[C@@H]1CCCCO[C@@H](CN(C)C(=O)Nc2ccc(F)cc2)[C@@H](C)CN([C@@H](C)CO)C(=O)c2cc(NC(=O)NC3CCCCC3)ccc2O1,2,7,3.7
O=C1CN(Cc2ccccc2)C[C@@H]2[C@H](c3ccc(-c4ccccc4F)cc3)[C@@H](CO)N12,-6,-28,20
COc1ccc2c3c(n(C)c2c1)[C@@H](CO)N(CC1CC1)CC31CCN(C(=O)c2ccccc2)CC1,1,-3,1.3
C[C@@H]1CC(=O)N[C@@H](c2ccccc2)C/C=C\C[C@H](c2ccc3c(c2)OCO3)NC1=O,4,20,2.7
O=C(C[C@H]1C=C[C@H](NC(=O)c2ccncc2)[C@@H](CO)O1)Nc1ccccc1,3,2,-1.3
C[C@@H]1CCCCO[C@H](CN(C)C(=O)Nc2ccccc2)[C@H](C)CN([C@@H](C)CO)C(=O)c2cc(NC(=O)CCCN(C)C)ccc2O1,-2,-2,-2.2
Cc1ccc(S(=O)(=O)N(C)C[C@@H]2Oc3c(NS(=O)(=O)c4cn(C)cn4)cccc3C(=O)N([C@H](C)CO)C[C@H]2C)cc1,1,5,-1.5
CC=Cc1ccc2n(c1=O)C[C@H]1[C@H](CO)[C@@H](C(=O)NCCCN(C)C)[C@@H]2N1C(=O)c1ccccc1 (mixture of isomers),1,-4,-3.1
CC(C)NC(=O)N1[C@@H]2CNC[C@H]1C2c1ccc(-c2ccc(C#N)cc2)cc1 (stereo partly drawn),5,12,-0.8
COc1ccc2c3c(n(C)c2c1)[C@@H](CO)N(C(=O)Nc1ccc(F)cc1)CC31CCN(C(=O)Nc2ccc(F)cc2F)CC1,0,-12,-3.3
COc1cccc(-c2ccc([C@H]3[C@@H](CO)N4C(=O)CN(C(=O)c5ccncc5)C[C@H]34)cc2)c1,3,0,1.7
Cc1ccc(S(=O)(=O)N(C)C[C@H]2Oc3c(NC(=O)c4cc(C)nn4C)cccc3C(=O)N([C@H](C)CO)C[C@@H]2C)cc1,0,-3,-2.5
COc1ccc2c3c(n(C)c2c1)[C@@H](CO)N(S(C)(=O)=O)CC31CCN(Cc2cncnc2)CC1,-2,5,1.2
CC(=O)N(C)C[C@@H]1Oc2ccc(NC(=O)NC(C)C)cc2CC(=O)N(C)C[C@@H]1C,2,2,-0.9
O=C(C[C@H]1CC[C@@H](NC(=O)Cc2cccnc2)[C@@H](CO)O1)Nc1ccccc1,3,2,1.1
CO[C@H]1CN(C)C(=O)c2ccc(NC(=O)CC(F)(F)F)cc2OC[C@H](C)NC[C@H]1C,2,1,3.3
C[C@@H]1CCCCO[C@H](CN(C)C(=O)c2ccccc2)[C@H](C)CN([C@H](C)CO)C(=O)c2cc(NS(C)(=O)=O)ccc2O1,-1,10,-3.5
CO[C@@H]1CN(C)C(=O)c2cc(NC(=O)Nc3cc(Cl)cc(Cl)c3)ccc2OC[C@H](C)NC[C@@H]1C,-59&-59,-81&-78,-15&-17
C[C@H](CO)N1C[C@H](C)[C@H](CN(C)C(=O)Nc2cccc3ccccc23)OCc2cn(nn2)CCCC1=O,1,-1,0.5
CC(C)c1cn(CC[C@@H]2CC[C@H](NC(=O)C3CCOCC3)[C@@H](CO)O2)nn1,2,0,0.2
C[C@@H]1CN([C@H](C)CO)S(=O)(=O)c2ccc(-c3ccc(C(=O)N(C)C)cc3)cc2O[C@H]1CN(C)C(=O)C1CC1,-1,-9,-1.5
C[C@@H]1CN([C@H](C)CO)C(=O)c2cc(NC(=O)CCC(F)(F)F)ccc2O[C@@H](C)CCCCO[C@H]1CN(C)Cc1ccccc1,0,4,-2.5
C[C@@H]1CN([C@H](C)CO)C(=O)c2cc(NS(=O)(=O)c3ccc(F)cc3)ccc2O[C@@H](C)CCCCO[C@@H]1CN(C)Cc1ccccc1,-9,-53,32
O=C(C1CC1)N1C[C@@H]2[C@H](c3ccccc31)[C@H](CO)N2C(=O)c1cccc(F)c1,2,-7,-2.9
O=C(c1cccc(F)c1)N1CC[C@@H]2[C@H]1c1cc(-c3cccc(F)c3)ccc1N[C@@H]2CO,-19,-38,22
COc1cccc(-c2ccccc2[C@@H]2[C@@H](CO)N(C(=O)Cc3ccccc3)[C@H]2C#N)c1,-7,-12,1.4
CC(C)CC#Cc1ccc([C@H]2[C@H](CO)N3C(=O)CN(C(=O)NC4CCCCC4)C[C@@H]23)cc1,-14,-39,27
Cc1ccc(S(=O)(=O)Nc2ccc3c(c2)C(=O)N([C@H](C)CO)C[C@H](C)[C@@H](CN(C)Cc2ccc(C(F)(F)F)cc2)O3)cc1,-3,-7,4.2
COc1ccccc1-c1ccc(C2[C@H]3CNC[C@@H]2N3S(=O)(=O)c2ccc(C)cc2)cc1 (stereo partly drawn),-56,-80,-14
O=C(C[C@@H]1CC[C@@H](NC(=O)Nc2ccccc2F)[C@@H](CO)O1)NCc1ccc(F)cc1,3,-2,0.1
CN(C)C(=O)c1cccc(-c2ccc3c(c2)[C@H]2[C@H](CCN2C(=O)C2CCCC2)[C@@H](CO)N3)c1,-5,3,-5.5
N#Cc1ccc2nc(-c3ccc(CN4CCC(n5cc(-c6ccccc6)[nH]c5=O)CC4)cc3)c(-c3ccccc3)nc2c1,3,16,12
COc1ccc(S(=O)(=O)Nc2ccc3c(c2)C(=O)N([C@@H](C)CO)C[C@H](C)[C@H](CN(C)C)OCCCC[C@H](C)O3)cc1,3,0,-1.4
C[C@@H]1CN([C@H](C)CO)C(=O)c2cc(NC(=O)Nc3ccccc3)ccc2O[C@H]1CN(C)Cc1ccc(Cl)c(Cl)c1,2,7,2.6

# From PubChem
